rRNA inh HTS: inhibits bacterial ribosomal RNA function over humanized ribosomes | E. coli WT GFP vs humanized-ribosome RFP mutants, fluorescence, 24 h; active compounds read low; DMSO median 0, no signal -100 | GFP signal change (wild-type ribosome), % (concentration not given with the values) | 350,000 tested, 1.6% active | AID 720706;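 active means significant combined selectivity score with lowered wild-type GFP, culture density cut under 30%, mutant RFP and density less affected; inactive means any of these conditions unmet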; further: one replicate is shown; some compounds called inactive have numbers as strong as hits
E coli growth: inhibitors of Escherichia coli growth; OD600 absorbance (no concentration beside the values); AID 1053175; OD600, 23 h; active compounds read low; 330,000 tested, 0.21% active;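 active means OD600 absorbance below the run mean of sample wells minus 3.6 SD, in any replicate, cut at about 0.56 in these data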;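 further: stock transfer was 300 nL into about 60 µL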
Beta2AR agonist: activates human beta-2 adrenergic receptor causing internalization; Am2.2-beta2AR cells, FAP receptor internalization, flow cytometry; reference of the scale not given here; 340,000 tested, 0.43% active; response, % (no concentration beside the values);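 active means response above a set limit, near 3 SD of response in nonfluorescent compounds, cut at about 42% in these data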;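 further: stock transfer was 100 nL into about 11 µL; a reference agonist was the positive control; negative values mostly stem from fluorescent compounds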
Target sequence (P07550 whole entry, looked up): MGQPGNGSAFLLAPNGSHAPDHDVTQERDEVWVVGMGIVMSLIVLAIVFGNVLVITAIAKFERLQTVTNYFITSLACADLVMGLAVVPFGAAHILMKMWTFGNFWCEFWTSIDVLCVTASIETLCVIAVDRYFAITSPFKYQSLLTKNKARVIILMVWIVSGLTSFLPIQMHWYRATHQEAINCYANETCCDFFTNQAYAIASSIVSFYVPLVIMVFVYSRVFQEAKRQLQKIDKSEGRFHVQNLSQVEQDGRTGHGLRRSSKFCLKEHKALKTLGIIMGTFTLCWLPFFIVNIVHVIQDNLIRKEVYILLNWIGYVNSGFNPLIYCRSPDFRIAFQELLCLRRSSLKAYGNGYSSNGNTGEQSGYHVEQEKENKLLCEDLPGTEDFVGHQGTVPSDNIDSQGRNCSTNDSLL
ALR inh: blocks human ALR sulfhydryl oxidase activity; purified ALR, DTT oxidation, H2O2 HRP-luminol luminescence; inhibition, % (concentration not given with the values); 290,000 tested, 3.8% active; AID 485317; P55789;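 active means mean and each replicate at 75% or more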;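 further: stock transfer was 7.5 nL into about 7.5 µL; 0% = neutral wells and 100% = wells with inactivated enzyme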
HNF4A DNA FP: change in binding of human HNF4 alpha to DNA. P41235. HNF4a-FITC DNA binding, fluorescence polarization, 1 h. activity change, % at 10 µM. 360,000 tested, 0.3% active. AID 1224865; in the data active means activity change above about 30%, passing the limit was not always enough;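 further: controls were the assay level and a saturating level of protein; the project sought stronger binding though the title names inhibitors; some compounds called inactive have numbers as strong as hits; positive values seem to mean higher polarization but the record does not say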
Target sequence (P41235 whole entry, looked up): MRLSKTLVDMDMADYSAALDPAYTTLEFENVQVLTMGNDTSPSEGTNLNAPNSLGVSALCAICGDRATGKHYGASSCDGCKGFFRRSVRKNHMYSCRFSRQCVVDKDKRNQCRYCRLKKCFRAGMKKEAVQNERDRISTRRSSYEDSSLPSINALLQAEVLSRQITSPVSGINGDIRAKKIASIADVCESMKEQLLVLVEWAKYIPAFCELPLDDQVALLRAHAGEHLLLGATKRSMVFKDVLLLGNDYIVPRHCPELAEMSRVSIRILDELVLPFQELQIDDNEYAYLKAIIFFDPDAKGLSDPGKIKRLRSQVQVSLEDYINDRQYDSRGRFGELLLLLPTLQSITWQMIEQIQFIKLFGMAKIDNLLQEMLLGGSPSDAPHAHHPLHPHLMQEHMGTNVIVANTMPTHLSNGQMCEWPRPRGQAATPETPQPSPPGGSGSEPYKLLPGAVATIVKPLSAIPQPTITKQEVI
UCH37 inh: human UCH37 deubiquitinating enzyme inhibition; 330,000 tested, 0.33% active; inhibition, % (concentration not given with the values); AID 588478; purified proteasome/UCH37, Ub-AMC cleavage fluorescence;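 active means mean of two replicates above 20%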;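 further: 0% = compound-free wells with enzyme and 100% = wells lacking proteasome; stock transfer was 100 nL into about 20 µL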
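assay system = human UCH37 enzyme supplied as purified proteasome complex | amount = proteasome at 0.15 nM in the dispensed enzyme solution | schedule = 30 min compound-proteasome preincubation then 25 min substrate reaction, room temperature | measured by = fluorescence, ex 355 nm, em 460 nm | benchmarks = no-proteasome wells (full inhibition) and compound-free wells (no inhibition)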
FGF22 binding: binders of recombinant human FGF22 by thermal shift | 340,000 tested, 1.5% active | AID 651658 | SYPRO orange fluorescence; percent of sucrose octasulfate shift, DMSO zero | calls only at 9.99 µM;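 active means melting point raised past a set limit in the mean and every replicate; three in four hits are not shown here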
Target sequence (Q9HCT0 whole entry, looked up): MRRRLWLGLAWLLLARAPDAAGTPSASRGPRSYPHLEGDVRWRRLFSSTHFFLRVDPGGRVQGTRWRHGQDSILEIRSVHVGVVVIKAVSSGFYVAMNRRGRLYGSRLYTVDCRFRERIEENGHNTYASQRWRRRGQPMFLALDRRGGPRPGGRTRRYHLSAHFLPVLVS
rRNA inh HTS OD600: second read-out of rRNA inh HTS, no call of its own (marks repeat the call); OD600 change, %; measured here: OD600 growth;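 optical density of the mix in the first replicate; 0 = DMSO median and -100 = no signal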
rRNA inh HTS RFP: also measured in rRNA inh HTS; calls as there; RFP signal change, %; measured here: RFP humanized mutant strains;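 first replicate; 0 = DMSO median and -100 = no signal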
Numbers without * were called inactive; i = inactive; · = not tested or not shown; & = joins results of further samples. A portion of the library (hit frequency here may not be typical).

rRNA inh HTS,rRNA inh HTS OD600,rRNA inh HTS RFP,E coli growth,Beta2AR agonist,ALR inh,HNF4A DNA FP,UCH37 inh,FGF22 binding,molecule
·,·,·,0.73,4,-2,-1.0,1.4,·,CC1=C(C(=O)N2CCCCCC2)C2(CCC(C)CC2)OC1=O (configuration not stated)
-1,0,-0.9,0.69,1,27,2.7,-2.8,i,CC(C)c1ccc(OC(=O)c2ccc3c(=O)n4c(nc3c2)CCC4)cc1
6,10,-2.4,0.73,1,·,-2.1,-2.3,i,CN(C)CCC(C(=O)c1ccccc1)c1cccnc1 (configuration not stated)
·,·,·,0.69,4,10,-2.7,1.6,·,CN(C)c1ccc(C=C2C(=O)OC(C)(C(C)(C)C)OC2=O)cc1 (configuration not stated)
-7,-2,-1.8,0.79,6,99*,-0.8,3.7,i,COc1ccc(-c2nc(CS(=O)CC(=O)NC3CCCc4ccccc43)c(C)o2)cc1OC (configuration not stated)
·,·,·,0.66,-3,-1,1.5,3.7,·,COc1ccc(CCNC(=O)c2cc(C(=O)c3cc(C)ccc3O)cn(CCc3ccc(OC)cc3)c2=O)cc1
8,11,-2.8,0.67,-5,-2,4.1,1.4,i,COc1ccc(Cc2nnc(NC(=O)c3ccccc3)s2)cc1OC
-1,14,-1.5,·,0,-6,4.1,3.7,i,CC(C)[C@@H]1NC(=O)c2cc([N+](=O)[O-])cc(I)c2OCC[C@@H](C(N)=O)NC(=O)[C@H](CCC(=O)O)NC1=O
12,11,7.1,0.68,-7,-1,3.4,0.1,i,CC(C)(C#N)Nc1ccccc1
0,-5,-2.2,0.68,-5,0,-3.6,-0.7,i,O=C(Nc1ccccc1C(=O)N1CCCCCC1)c1ccc(F)cc1
·,·,·,0.7,-4,99*,4.0,2.8,·,CCn1ccnc1C(O)c1ccc(N(C)C)cc1 (configuration not stated)
1,6,-5.7,0.76,-1,-20,-2.6,2.4,i,COc1ccc(-n2nnc3c(=O)n(CC(=O)N4CCCCC4)cnc32)cc1
·,·,·,·,0,33,1.6,·,·,O=C1CN(CC(=O)N2CCCCC2)c2ccccc2O1
·,·,·,0.66,4,-5,-1.1,-0.6,·,CCOc1ccc(OCCSc2nc3ccccc3o2)cc1
10,12,-0.9,0.68,19,-1,-0.6,1.5,i,CCN(CC)CCn1cnc2c1c(=O)[nH]c(=O)n2Cc1ccccc1
15&1,2&0,1.7&-0.7,·,·,·,0.1,·,i,C[C@H](CO)N1C[C@H](C)[C@H](CN(C)C(=O)c2ccccc2)OCc2cnnn2CCCC1=O
5,4,3.9,0.68,5,2,2.7,4.3,i,COc1cc(OC)cc(C(=O)N2CCN(Cc3ccccc3[N+](=O)[O-])CC2)c1
·,·,·,0.71,6,21,2.9,5.2,·,Cc1cccc(NC(=S)N2CCN(c3cc(C)ccc3C)CC2)c1
·,·,·,·,-4,·,-1.2,1.6,·,C=CC(=O)N1C/C=C\C(c2ccc(OC)cc2)N(Cc2ccc(F)cc2)C(=O)C1 (configuration not stated)
·,·,·,0.81,-6,-2,4.3,-158,·,O=C(Cc1cccc2ccccc12)Nc1ccc(-c2cc3ccccc3oc2=O)cc1
-45,-61,-13,·,·,·,1.3,·,i,CC1(C(=O)NCc2ccc(Cl)cc2)CCN1C(=O)Cc1ccc(Cl)cc1Cl (configuration not stated)
·,·,·,0.76,0,0,0.6,0.2,·,O=C(CCSc1ccccc1)Nc1nc2c(s1)CCCC2
2,14,0.3,0.66,14,3,13,4.2,i,Cc1cc(C)n(CC(=O)NC2CCCN(Cc3ccc(Cl)cc3)C2)n1 (configuration not stated)
·,·,·,0.63,2,0,-1.2,1.9,·,Cc1cccc(-c2noc(Cc3ccccc3)n2)c1
·,·,·,·,-2,4,-0.8,·,·,Cc1cccc(NC(=O)CCC(=O)N/N=C/c2ccco2)c1C
·,·,·,0.68,-5,3,1.4,0.6,·,CC(c1ccccc1)N1C(=O)C2C3CCC(C3)C2C1=O (configuration not stated)
-3,16,-3.6,0.69,-12,·,2.5,4.9,i,O=[N+]([O-])c1ccc(Cc2ccccn2)cc1
4,7,0.8,0.68,-2,·,2.3,5.5,i,CC1CCCC(C)N1C(=O)COC(=O)CNC(=O)c1sc2ccccc2c1Cl (configuration not stated)
11,7,6.0,0.71,6,·,-1.8,2.9,i,CC(=O)Nc1cc(-c2nn3c(C)nnc3s2)ccc1C
17,16,3.7,0.71,-2,·,-0.2,2.5,i,CC(C)OC(=O)CC1C(=O)NCCN1C(=S)NC(=O)c1ccccc1 (configuration not stated)

Next structures
rRNA inh HTS,rRNA inh HTS OD600,rRNA inh HTS RFP,E coli growth,Beta2AR agonist,ALR inh,HNF4A DNA FP,UCH37 inh,FGF22 binding,molecule
11,5,4.7,0.64,-5,-22,0.3,2.1,i,CC12CCC(C(=O)Nc3ccncc3)(CC1O)C2(C)C (configuration not stated)
10,15,-3.5,0.67,13,-1,8.3,1.6,i,COc1ccc(CCn2c(=N)c(C(=O)NCC3CCCO3)cc3c(=O)n4ccccc4nc32)cc1OC (configuration not stated)
-2,-14,8.0,·,·,·,0.1,·,i,Cc1ccc(C)c(CC(=O)N2CCCC(c3cc(C(=O)Nc4ccccc4Cl)no3)C2)c1 (configuration not stated)
·,·,·,0.65,1,10,-3.9,-17,·,CCCC(=O)NC(c1ccco1)c1c(O)ccc2ccccc12 (configuration not stated)
·,·,·,·,-6,5,4.8,·,i,Cc1c(C(=O)N/N=C/c2cccs2)nc2ccccn12
10,13,0.3,0.66,-5,·,-5.3,3.1,i,Cc1ccc(-c2n[nH]c(=O)c3ccccc23)cc1S(N)(=O)=O
·,·,·,0.68,1,0,3.7,-88,·,CC(C(=O)NCC1CCCO1)N(C(=O)c1snc(C(N)=O)c1N)c1ccccc1 (configuration not stated)
-16*,2.3*,4.7*,0.65,4,-1,0.6,1.0,i,COc1ccc(Cl)cc1C(=O)OCC(=O)c1ccc[nH]1
3,13,0.3,0.67,0,-1,1.7,0.6,·,COc1ccc2c(c1)OC(O)(C(F)(F)F)CC2=O (configuration not stated)
-1,0,-2.1,0.7,-6,-8,2.7,1.4,i,CC1C(=O)Nc2ccccc2N1C(=O)c1ccc(F)cc1F (configuration not stated)
3,14,0.8,0.67,-4,-28,1.4,4.7,i,Cc1c(NC(=O)c2cnc(Cl)c(Cl)c2)c(=O)n(-c2ccccc2)n1C
·,·,·,0.69,14,-11,1.1,-33,·,COc1ccc(N(C(=O)c2cccnc2)S(=O)(=O)c2ccc3c4c(cccc24)C(=O)N3C)cc1
9,9,7.8,·,-1,4,-1.1,·,·,CC(NC(=O)c1cccs1)C(S)c1ccccc1 (configuration not stated)
-14,-8,2.0,0.67,8,-6,-2.4,3.7,i,COc1ccc(C(=O)NCCNc2ccc([N+](=O)[O-])cc2)cc1OC
17,18,0.7,0.72,7,-2,5.1,2.5,i,CCCc1cc(=O)[nH]c(SCC(=O)Nc2ccc3c(c2)CCC3)n1
-27,-39,-13,0.67,-2,-8,2.7,1.4,i,C=CCNC(=S)N(CC)c1cccc2ccccc12
·,·,·,0.64,0,-8,0.8,0.0,·,O=C(c1cccs1)N1CCC(c2nc3c(nnn3Cc3ccccc3)c(=O)[nH]2)CC1
-21,-32,-2.6,0.7,-5,-49,5.0,-0.4,i,CC1(c2ccc3ccccc3c2)NC(=O)N(CC(=O)Nc2cccc(S(=O)(=O)N3CCOCC3)c2)C1=O (configuration not stated)
12,7,16,·,·,·,7.2,·,i,c1ccc(COc2ccc(-c3cc4nc(NCCCn5ccnc5)ccn4n3)cc2)cc1
5,12,0.2,·,·,·,-3.8,·,i,CC1(C(=O)NS(=O)(=O)c2cccc(F)c2)CCN1C(=O)c1ccco1 (configuration not stated)
-24*,-18*,0.9*,0.65,1,-5,0.6,-175,i,Cc1ccc(Oc2coc3cc(O)ccc3c2=O)cc1
·,·,·,0.72,-4,11,-0.6,2.7,·,COc1ccc(C2C(C(C)=O)=C(O)C(=O)N2CCCn2ccnc2)cc1 (configuration not stated)
6,-2,-7.0,0.65,-2,-10,3.8,0.6,·,Cn1cccc1CNC(=S)Nc1cc(F)cc(F)c1
5,9,-2.2,0.68,-3,-1,-8.0,1.0,i,CC(=O)N1c2ccc(S(=O)(=O)N3CCC(C(=O)NC4CCCCC4)CC3)cc2CC1C (configuration not stated)
-3,6,-1.0,·,-4,3,4.4,·,i,COC(=O)c1ccc(/C=N/NC(=O)CNc2cccc(C)c2)cc1
-19,-14,-5.6,0.68,17,21,4.7,7.5,i,Cc1nn(-c2ccc([N+](=O)[O-])cc2)c(N)c1-c1ccccc1
-1,-7,-2.7,0.71,-3,3,0.4,0.8,i,Nc1ccc(Sc2ccc([N+](=O)[O-])cc2)cc1
·,·,·,0.68,3,-3,2.4,0.4,·,Cc1cc(NC(=O)CSc2nnnn2C)n(-c2ccccc2)n1
-1,-3,2.7,0.62,-3,-9,-0.8,0.9,i,CCn1nnc2cc(C(=O)NCCc3ccccc3F)ccc21
19,9,-0.8,0.68,1,-18,-1.0,3.4,i,COc1ccc(C(=O)NC2c3ccccc3-c3ccccc32)cc1

Carrying on.
rRNA inh HTS,rRNA inh HTS OD600,rRNA inh HTS RFP,E coli growth,Beta2AR agonist,ALR inh,HNF4A DNA FP,UCH37 inh,FGF22 binding,molecule
-20,-44,2.7,·,-5,27,-1.4,·,i,CC(Nc1nc(-c2ccccc2)nc2ccccc12)c1ccccc1 (configuration not stated)
·,·,·,0.68,-3,91*,-4.0,0.9,·,Nc1nnc(N2CCCCC2)s1
·,·,·,0.77,4,-3,2.8,2.2,·,CCOC(=O)C(NC(=O)Nc1ccc(F)cc1)(OCC)C(F)(F)F (configuration not stated)
-10,-26,4.4,0.6,1,6,9.8,0.7,i,Oc1ccccc1-c1cc(-c2ccccc2)n[nH]1
·,·,·,0.7,6,9,-2.6,1.5,·,CC1(C)NC(=O)N(CC(O)COc2ccccc2-c2ccccc2)C1=O (configuration not stated)
·,·,·,0.72,-9,6,2.4,6.9,·,C/C(=C1\SC(N2CCOCC2)=NC1=O)c1ccccc1
-8,4,-1.8,0.67,-4,-7,0.3,6.3,i,O=C(c1csc2c1CCCC2)n1cccn1
-4,0,0.4,·,8,·,5.6,·,i,CCOC(=O)c1nn(-c2ccc(C)cc2)c(=O)cc1OCC(=O)Nc1ccc(OC)cc1
-32*,-7.8*,-3.4*,0.67,-4,-5,-2.0,4.2,i,CC1C=Cc2ccccc2N1C(=O)c1ccccc1 (configuration not stated)

Part of the list above, with each value named.
O=C(c1csc2c1CCCC2)n1cccn1
  rRNA inh HTS: -8	rRNA inh HTS OD600: 4	rRNA inh HTS RFP: -1.8	E coli growth: 0.67	Beta2AR agonist: -4	ALR inh: -7	HNF4A DNA FP: 0.3	UCH37 inh: 6.3	FGF22 binding: i
Nc1nnc(N2CCCCC2)s1
  rRNA inh HTS: ·	rRNA inh HTS OD600: ·	rRNA inh HTS RFP: ·	E coli growth: 0.68	Beta2AR agonist: -3	ALR inh: 91*	HNF4A DNA FP: -4.0	UCH37 inh: 0.9	FGF22 binding: ·
CC1C=Cc2ccccc2N1C(=O)c1ccccc1 (configuration not stated)
  rRNA inh HTS: -32*	rRNA inh HTS OD600: -7.8*	rRNA inh HTS RFP: -3.4*	E coli growth: 0.67	Beta2AR agonist: -4	ALR inh: -5	HNF4A DNA FP: -2.0	UCH37 inh: 4.2	FGF22 binding: i
CC1(C)NC(=O)N(CC(O)COc2ccccc2-c2ccccc2)C1=O (configuration not stated)
  rRNA inh HTS: ·	rRNA inh HTS OD600: ·	rRNA inh HTS RFP: ·	E coli growth: 0.7	Beta2AR agonist: 6	ALR inh: 9	HNF4A DNA FP: -2.6	UCH37 inh: 1.5	FGF22 binding: ·

Screens deposited in PubChem BioAssay by several laboratories.
